D2 ag = agonists of human D2 dopamine receptor (beta-arrestin); DiscoveRx PathHunter D2 beta-arrestin, luminescence, 90 min; 100% = 57 uM dopamine signal; activation, % (no concentration beside the values); actives 0.084% (n = 360,000); AID 624465; in the data active = activation above about 40%; inconclusive = about 15% to 40%; inactive = below about 15%; also: compound concentration not given in the record; the text of the record calls up to 30% inactive
Target sequence (P14416 whole entry, looked up): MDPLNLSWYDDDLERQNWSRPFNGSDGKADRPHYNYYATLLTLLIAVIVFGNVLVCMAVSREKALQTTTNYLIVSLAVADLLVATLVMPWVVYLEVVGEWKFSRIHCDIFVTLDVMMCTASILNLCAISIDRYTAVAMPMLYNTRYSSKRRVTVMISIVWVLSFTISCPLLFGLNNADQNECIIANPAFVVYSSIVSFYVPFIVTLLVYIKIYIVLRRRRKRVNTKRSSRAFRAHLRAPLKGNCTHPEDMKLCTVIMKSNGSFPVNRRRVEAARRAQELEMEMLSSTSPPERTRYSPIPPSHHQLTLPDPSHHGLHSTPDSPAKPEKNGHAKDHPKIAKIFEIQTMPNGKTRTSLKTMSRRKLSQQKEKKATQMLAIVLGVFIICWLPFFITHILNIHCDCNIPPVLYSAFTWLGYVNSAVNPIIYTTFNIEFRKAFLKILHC
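DiscoveRx PathHunter D2 beta-arrestin cells (2,100/well) attached overnight, then compound-stimulated 90 min at 37 C in HBSS/10 mM HEPES/0.1% Tween-20 buffer; beta-galactosidase complementation read by luminescence after 1 h at ambient temperature. Dopamine 57 uM final (EC100) as control.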
ClpP mod = qHTS Assay for Activators of ClpP; AID 651965, 2013; Potency, µM (doses to about 57.5 µM), for inactives: at the highest dose activity change, negative = active; actives 1.9% (n = 340,000); purified B. subtilis ClpP, FRET peptide cleavage, 20 min; ATP-dependent Clp protease proteolytic subunit (Bacillus subtilis (strain 168)), P80244; active = well fitted falling curve with a large enough effect; inconclusive = small, poorly fitted or top-dose-only effect; inactive = no such curve, though single readings can be large or run the other way; also: potency is read from the fitted curve at half-maximal effect; the source files actives as falling curves though it sought activators and does not explain the sign; nearly all actives have a fitted effect of over 65% in size; many hits overshoot -100%
Target sequence (P80244 whole entry, looked up): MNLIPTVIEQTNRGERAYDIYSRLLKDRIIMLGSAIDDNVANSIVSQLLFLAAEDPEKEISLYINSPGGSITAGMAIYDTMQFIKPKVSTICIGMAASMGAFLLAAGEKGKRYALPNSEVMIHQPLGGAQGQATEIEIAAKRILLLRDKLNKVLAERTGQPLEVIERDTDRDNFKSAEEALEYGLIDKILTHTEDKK
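ClpP 10 microg/mL final, pH 8 Tris/KCl buffer with BSA, glycerol, Tween-20; compound pinned in; FRET-FV substrate; RT 20 min; Ex320/Em430; ΔFRET vs ADEP 5.8 microM, DMSO, no enzyme.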
gsp antagonist = gsp mutant antagonism; gsp-mutant cells, cAMP HTRF, 30 min; control for the full effect not named in the record; Potency, µM (top dose mostly 76.9 µM), inactives show at the top dose activity change, negative = inhibition, usual class: inhibitors; actives 0.4% (n = 340,000); active = falling curve of any shape with a large fitted effect; inconclusive = falling curve, mostly with a smaller effect; inactive = flat or rising curve; cell line not stated here;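 also: intracellular cAMP measured with PDE inhibitor Ro 20-1724 present during compound exposure; potency is read from the fitted curve at half-maximal effect; % is scaled to controls: 0 for no effect and ±100 for the full control effect; nearly all actives have a fitted effect of over 65% in size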
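HTRF cAMP measurement after 30 min RT detection following 30 min, 37C compound treatment alongside […] (added as 300 uM solution) in G418-selected cells seeded at 2000/well and grown 16–24 h.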
gsp ag = activates gsp, the McCune-Albright syndrome mutation | gsp mutant cells, cAMP HTRF, 30 min; control for the full effect not named in the record | Potency, µM (titrated, usually from 76.9 µM), without a hit: at the top dose activation (cAMP increase), usual class: activators | actives 0.13% (n = 340,000); active = well fitted activation curve with a large enough effect; inconclusive = small, poorly fitted or top-dose-only effect, or another doubt; inactive = no such curve, though single readings can be large or run the other way; cell line not stated here;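 also: phosphodiesterase inhibitor Ro 20-1724 added with compounds to block cAMP breakdown; potency is read from the fitted curve at half-maximal effect; nearly all actives have a fitted effect of over 60% in size; about a fifth of the inactives were tested at one dose only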
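Cells stably selected in G418 were plated at 2000/well, grown 16-24 hr, then given compounds in DMSO with the PDE inhibitor […] (300 uM solution added) for 30 min at 37C; cAMP was read by HTRF.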
Sfp inh = inhibitors of Bacillus subtilis Sfp phosphopantetheinyl transferase | Q9F4F7 | Biochemical Sfp PPTase activity, qHTS | Potency, µM, without a hit: max response, negative = inhibition, hits mostly inhibitors | actives 3.5% (n = 310,000) | AID 1490; active = well fitted inhibition curve with a large enough effect; inconclusive = small, poorly fitted or top-dose-only effect, or another doubt; inactive = no such curve, though single readings can be large or run the other way;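 also: the enzyme is Sfp with the accession as filed and its product quenches rhodamine fluorescence; potency is read from the fitted curve at half-maximal effect; 0% = enzyme reaction without inhibitor and -100% = no enzyme wells; top concentration of the series not given in the record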
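With Hepes-Na pH 7.6 buffer containing 10 mM MgCl2, Sfp (15 nM) modified BHQ-2-YbbR (12.5 uM) using rhodamine-CoA (5 uM). Two reads 30 minutes apart at 525/598 nm yielded each well's rate.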
PINK1 modulator = PINK1 expression modulation | PINK1 immunofluorescence, high-content cytometry, 24 h | Potency, µM (doses to about 76.6 µM), without a hit: top-dose activation (PINK1 increase), actives largely listed as activators | actives 0.2% (n = 410,000) | AID 624263; active = well fitted activation curve with a large enough effect; inconclusive = small, poorly fitted or top-dose-only effect; inactive = flat fitted curve, though single readings scatter; cell line not stated here;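 also: potency is read from the fitted curve at half-maximal effect; % of control where 0% means no effect; nearly all actives have a fitted effect of over 65% in size; a mitochondrial uncoupler was the plate control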
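A stable cell line was treated with compounds at 5 concentrations for 24 hours, with CCCP as control. PINK1 levels and mitochondrial localization were measured by immunofluorescence with mitochondrial, cell and nuclear markers after fixation, read by laser-scanning cytometry.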
Menin MLL FP FL = displaces fluorescein MLL peptide from human menin; Fluorescence polarization, fluorescein-MLL peptide displacement from menin; 290,000 tested, under 10 active; FP activity change, % at 61.4 µM; inconclusive = falling polarisation curve, or a change in total fluorescence; inactive = total fluorescence flat and polarisation flat or rising; no compound was filed as active; the % refers to the polarisation; negative = inhibition;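 also: % of control where 0% means no effect; inhibitors lower the polarisation; unlabelled MLL peptide was the positive control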
An asterisk follows results filed as active; ? = inconclusive; . = no result given; & = joins results of further samples; [ ] = dose if it differs, or a comment.

SMILES	D2 ag	ClpP mod	gsp antagonist	gsp ag	Sfp inh	PINK1 modulator	Menin MLL FP FL
CCn1c(SCC(=O)NCc2ccccc2)nc2nc3c(cc2c1=O)CCCC3	-4.2	.	-7.8%	0.8%[15.4 µM]	25.7%	0.7%	-0.4
O=C(NCCN1CCOCC1)c1sc2ccccc2c1Cl	-13.4	.	4.1%	24.9%[15.4 µM]	4.5%	-0.3%	-6.2
O=C(c1cccc(Cl)c1)N1CCC2CC1c1cc(-c3ccc(F)cc3)ccc12 (centres undefined)	-0.7	-1.9%	-8.0%	.	.	0.8%	.
CN1/C(=N\O)c2cccc3cccc1c23	1.5	-6.8%	4.0%	?	-24.5%	-1.4%	4.7
O=C(CSc1nnc(NC(=O)C2CCC2)s1)NC1CC1	-1.8	1.1%	9.2%	22.2%	7.9%	0.8%	1.2
ClC(Br)=C(n1cnc2ccccc21)n1cnc2ccccc21	-1.3	25.1µM*	-11.9%	5.7%	11.5%	-2.2%	2.1
O=c1cc(O)cc2n1CCC2	-4.6	-5.3%	.	.	.	0.8%	.
O=C(NCc1ccccc1)c1onc(CSc2ccc(Cl)cc2)c1C(=O)NCc1ccccc1	-4.4	-2.1%	-1.0%	15.6%	12.9%	0.1%	4.9
C/C(=N\N=C(/N)SC1CC(=O)N(c2ccc(Cl)cc2)C1=O)c1cccs1 (centres undefined)	3.8	-2.3%	?	3.7%	13.0%	-1.1%	-0.7
Cc1c(NS(=O)(=O)c2ccccc2F)c(=O)n(-c2ccccc2)n1C	3.3	.	10.3%	8.3%	13.6%	0.8%	.
COc1ccc(CNC(=O)C2CCCN2S(=O)(=O)c2ccc(C)cc2)cc1 (centres undefined)	-0.1	-0.4%	5.8%	11.2%	8.8%	-2.2%	-2.3
COc1ccc(CCNS(=O)(=O)c2ccc(C3CNC(=O)C3)cc2)cc1OC (centres undefined)	0.1	1.0%	-2.6%	-9.8%	-15.9%	.	-1.0
Cc1ccc(S(=O)(=O)NC(C)(C)CN2CCCCC2)cc1	0.3	2.0%	-1.0%	-20.4%	16.3%	0.4%	0.1
OCCN1CCN(C(=S)Nc2ccc(Oc3ccccc3)cc2)CC1	-3.2	-1.4%	12.0%	?	0.1%	1.1%	-2.5
Nc1nnc(CC(=O)N/N=C\c2ccc(-c3cccc(Cl)c3)o2)s1	-6.7	-12.2%	-7.7%	?	-15.5%	-0.9%	5.7
Cc1ccc(N2CC(C(=O)NCc3cccnc3)CC2=O)cc1 (centres undefined)	-1.5	1.3%	10.6%	-64.4%[inhibitor]	9.0%	.	-0.5
CC(=O)c1c(C)[nH]c(-c2ccccc2)c1C	-5.2	-4.2%	6.2%	-4.7%[15.4 µM]	1.9%	3.1%	3.2
Cc1nc(NC(=O)COc2ccccc2)sc1C(=O)Nc1ccccc1	-0.4	-0.8%	-5.7%	8.7%	-2.3%	-1.5%	1.7
Cc1ccc(SCc2c(C(=O)N/N=C/C3CC=CCC3)nnn2-c2nonc2N)cc1 (centres undefined)	7.4	-2.3%	-8.9%	14.2%[15.4 µM]	13.0%	-1.0%	-1.2
COc1ccc(Cn2ccnc2SCC(=O)NC2CCCC2)cc1	-2.4	-1.5%&-0.2%	7.5%	-30.0%	12.5%	4.8%&-1.1%	.
COc1cccc(-c2ncc3ccccc3c2COC(=O)CCC(=O)O)c1	-0.1	0.3%	-14.1%	.	.	1.7%	.
CC1CN(C(=O)c2cc3ccccc3oc2=O)CC(C)O1 (centres undefined)	-1.4	-1.7%	4.6%	0.4%	25.6%	1.8%[38.3 µM]	2.8
COc1ccc(CNC(=O)COC(=O)/C=C/c2ccco2)cc1	-4.2	1.0%	13.3%	?	?	-1.3%	2.1
COc1ccc(NC(=O)c2ccco2)cc1NC(=O)COc1ccccc1	-2.8	-0.1%&-0.1%	-19.9%	-3.9%	-3.7%	-0.3%&-1.0%	1.9
Cc1cc(C)n(CCCNC(=O)c2ccc(C)c(S(=O)(=O)N3CCOCC3)c2)n1	-0.2	1.1%	6.3%	-43.7%	.	-0.9%	.
CCOC(=O)c1c(C2COc3ccccc3O2)csc1NC(=O)c1ccccc1 (centres undefined)	-0.3	14.1µM*	23.8%	-17.3%	-1.3%	7.5%[38.3 µM]	-0.7
CCOc1ccc(S(=O)(=O)N(C)CC(=O)NCc2ccc3c(c2)OCO3)cc1	0.8	.	3.9%	29.4%	16.9%	-1.7%	.
Nc1cc(=O)[nH]c(SCC(=O)N2CCCC2)n1	-4.8	-1.9%	7.5%	12.4%	.	3.4%	.
CC1CN(C(C)C)C(C)CC1OC(=O)c1ccccc1 (centres undefined)	-3.4	-3.3%	-4.7%	?	10.5%	-0.1%	-0.4
N#Cc1ccccc1NC(=O)COC(=O)CCc1ccc(S(=O)(=O)N2CCCCC2)cc1	-1.5	-3.5%	-8.6%	-8.3%	0.0%	0.1%	2.4
CC(C)(C)N1CCC1CN (centres undefined)	0.0	.	11.7%	15.7%	24.8%	0.9%	-0.6
COc1ccccc1CC(=O)Nc1ccc2c(c1)C(=O)NC2=O	-0.5	.	7.4%	-15.3%	-5.4%	-0.9%	0.2
CCN(CC)CCCNC(=O)c1[nH]c(C)c(C(=O)NC2CCCCC2)c1C	-3.5	-0.9%	0.9%	?	6.7%	2.1%	4.1
COCc1cc(C)nc(SCC[N+](C)(C)CC(=O)c2ccccc2)c1C#N	-3.0	-2.3%	5.8%	-9.5%[15.4 µM]	20.7%	1.3%	0.6
COc1ccccc1C(=O)NC(=O)COC(=O)CN1C(=O)NC2(CCCCC2C)C1=O (centres undefined)	-1.1	.	-0.1%	31.8%[15.4 µM]	.	-0.6%	.
O=C(OC1CCOC1=O)C1CCN(S(=O)(=O)c2ccc(Cl)c(C(F)(F)F)c2)CC1 (centres undefined)	-1.2	-2.6%	4.9%	7.5%	.	-4.2%	.
COc1ccc(-n2c(C)cc(/C=C3\C(=O)NN(c4ccccc4)C3=O)c2C)cc1	-5.0	-2.0%	-22.1%	-3.1%[15.4 µM]	1.2%	-3.4%	1.8
CC(=O)c1c(C)[nH]c(C(=O)Nc2ccc(C)c(C)c2)c1C	1.3	-0.7%	-17.1%	11.6%	7.4%	-1.4%	0.2
CCn1cc(Br)c(C(=O)Nc2ccc(Cl)cc2Cl)n1	-0.5	0.5%	-16.6%	14.8%	-26.9%	3.3%	3.3
CC(=O)OC/C=C(\C)CCC=C(C)C	-1.7	-1.5%	15.1%	?	.	1.5%	.
CC(c1ccncn1)N(C)C(=O)c1ccc2oc(Cc3ccccc3)nc2c1 (centres undefined)	-2.7	-1.8%	5.1%	8.6%[15.4 µM]	0.2%	1.0%	.
COC(=O)c1ccc(Cn2nc(C)c([N+](=O)[O-])c2C)o1	-3.4	1.2%	9.7%	-1.2%	-5.2%	0.1%	4.0
COc1ccc(CC(=O)Nc2ccc(C(=O)Nc3ccccc3C(=O)O)cc2)cc1OC	4.6	.	-31.1%	-13.6%[15.4 µM]	19.5%	1.3%	0.2
N#Cc1ccc(CSc2nnc(-c3ccncc3)o2)cc1	-0.6	.	8.3%	?	9.2%	3.9%	-5.7
O=C(CSc1nnc(-c2cccc(F)c2)o1)N1CCOCC1	-4.5	.	8.2%	5.6%	11.7%	0.0%	0.8
O=C(COC(=O)/C=C/c1ccccc1Cl)NCc1ccco1	-3.3	.	5.4%	-0.1%[15.4 µM]	13.9%	3.1%	-1.1
COc1cc(NC(=O)c2ccco2)c(C(=O)OCC(=O)Nc2ncc(Cl)cc2Cl)cc1OC	-0.1	-10.2%	9.0%	4.0%	9.6%	1.3%[38.3 µM]	6.3
Cn1c(=O)[nH]c(=O)c2c1nc(N1CCCCCC1)n2CCSc1nc2ccccc2o1	-4.4	0.7%	7.8%	-24.4%	12.5%	2.1%	-1.4
Cc1cccc(C(=O)Nc2scc(-c3ccc(Br)cc3)c2C(=O)O)c1	-3.6	-18.0%	?	11.8%[15.4 µM]	.	13.1%	.
COC(=O)c1sc(S(=O)(=O)N2CCN(c3ccccc3)CC2)c(C(=O)OC)c1C	0.0	-1.3%	-13.8%	-11.6%	11.7%	9.6%[38.3 µM]	-0.9
Next part:
SMILES	D2 ag	ClpP mod	gsp antagonist	gsp ag	Sfp inh	PINK1 modulator	Menin MLL FP FL
O=C(Nc1ccc(Cl)cc1Cl)Nn1cnnc1	-5.0	2.2%	7.0%	4.6%	22.0%	-0.8%	.
Cc1cc(NC(=O)COC(=O)c2ccc(S(=O)(=O)N3CCCc4ccccc43)cc2)no1	-1.6	-3.9%	-3.5%	-4.3%	9.8%	1.9%	1.8
CCc1cc(=O)oc2c(C)c(OCC(=O)NCCCN3CCCC3=O)ccc12	-4.2	4.3%	-5.1%	-5.9%	21.2%	-0.1%	-0.6
O=C(NCc1cccc(F)c1)C1CCN(C(=O)c2sccc2-n2cccc2)CC1	-1.6	0.9%&-5.9%	-4.6%	-4.4%	3.2%	-1.1%&0.1%	4.5
CN(C)C(=O)C1OC(C)(C)OC1C(=O)N(C)C (centres undefined)	-2.4	0.9%	1.8%	-22.7%	12.8%	.	-0.4
Cc1cc(C)cc(C(=O)OCC(=O)Nc2cccc(S(=O)(=O)NC3=NCCCCC3)c2)c1	3.7	-4.4%	?	2.1%	0.5%	0.7%	-3.3
COc1cccc2cc(-c3nnc(SCC(=O)Nc4nc(C)cs4)n3C)oc12	-0.3	8.8%	-8.6%	0.0%	15.5%	2.0%	-0.6
Cc1ccc(F)cc1NC(=O)N1CCCN(c2ccc(C(F)(F)F)cn2)CC1	2.7	.	4.6%	-0.7%[15.4 µM]	0.8%	-0.6%	3.2
COc1ccc(CCNC(=O)c2cc(-c3ccc(C)cc3O)n[nH]2)cc1OC	-3.8	46.6%	-3.4%	-10.3%	-1.0%	11.6%	-3.1
CCc1ccc(N2CC(O)=C(c3nc4ccccc4c(=O)[nH]3)C2=N)cc1	-0.1	.	2.1%	26.7%	20.8%	0.2%	1.9

Screening results as filed in PubChem BioAssay.
